AmpC inh no det = inhibitors of E. coli AmpC beta-lactamase without detergent; P00811; AmpC nitrocefin hydrolysis, absorbance 480 nm, no detergent; potencies from a single point are estimates; Potency, µM (series often up to 28.7 µM), for inactives: at the top dose activity change, negative = inhibition; 1.8% of 71,000 active; AID 585; active = falling curve, for most hits resting on a single point; inconclusive = weak or doubtful change; inactive = flat or rising curve; further: % of control where 0% means no effect; about half of the hits show no inhibition at the top dose; a quarter of the inactives give rising signals
Target sequence (P00811 whole entry, looked up): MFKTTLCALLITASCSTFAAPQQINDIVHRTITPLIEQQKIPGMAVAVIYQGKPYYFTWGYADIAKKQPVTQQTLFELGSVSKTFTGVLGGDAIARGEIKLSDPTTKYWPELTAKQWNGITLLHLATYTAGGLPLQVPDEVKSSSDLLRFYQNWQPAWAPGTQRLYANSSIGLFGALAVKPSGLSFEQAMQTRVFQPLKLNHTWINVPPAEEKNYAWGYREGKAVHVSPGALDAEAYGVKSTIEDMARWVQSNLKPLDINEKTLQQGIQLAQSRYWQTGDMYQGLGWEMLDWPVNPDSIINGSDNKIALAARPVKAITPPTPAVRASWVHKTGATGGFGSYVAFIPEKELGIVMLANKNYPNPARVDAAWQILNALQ
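Enzyme, pH 7.0 phosphate. Compound titrations were pre-incubated with AmpC for 15 min at room temperature before nitrocefin (stock 800 uM) addition; product formation was recorded at 480 nm every 20 s for 4 min.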
Numbers without * were called inactive; u = inconclusive; & = joins results of further samples; [ ] = another dose, or the depositor's remark. Potency means the concentration at half of the fitted maximal effect. A portion of the library; rates above refer to the full screens.

SMILES	AmpC inh no det
COc1cccc(/C(O)=C2/C(=O)C(=O)N(c3cc(C)on3)C2c2cccs2)c1 (stereo unspecified)	-14%
Cc1ccc(C(=O)OCC(=O)NCc2ccc3c(c2)OCO3)s1	-3%
CN1C(C)(C)CCCC1(C)C	-10%[12.8 µM]
C=C(C)COc1ccc(-c2[nH]ncc2-c2ccc(OC)c(OC)c2)c(O)c1	-14%
CCOC(=O)c1c(NC(=O)Cn2nnc3ccccc32)sc2c1CCC(C)C2 (stereo unspecified)	-1%
Cc1nn(Cc2ccc(Cl)cc2)c(C)c1NC(=O)c1noc2c1CCCCC2	78%
Cc1ccc(-n2nnnc2SCC(=O)Nc2ccc3c(c2)COC3=O)cc1C	-8%
COC(=O)c1ccc(OC)c(CSc2nnc(-c3ccc(C)cc3)o2)c1	9%
COc1ccccc1OC(=O)C1CC(=O)N(c2ccc(Cl)cc2)C1 (stereo unspecified)	29%
Cc1cc(C(=O)NCc2cccnc2)n(-c2ccccc2)n1	-3%
COc1ccc(N(C(=O)CNC(=O)c2ccco2)C(C(=O)NC2CCCCC2)c2ccco2)cc1 (stereo unspecified)	37%
O=C(O)C1CSC2c3ccccc3C(=O)N12 (stereo unspecified)	-19%
N#CC1=C(N)N2C(=C(C#N)C13CCCCC3)SC1CCCCC12O (stereo unspecified)	-25%
N#CN(CC(N)=O)c1nc(N2CCCCC2)nc(N2CCCCC2)n1	4%
Cc1ccc(N(CC(=O)O)S(C)(=O)=O)cc1Cl	-9%
O=C(C1CCC(=O)N1C1CCCCC1)N1CCN(c2ccc(F)cc2)CC1 (stereo unspecified)	38%
CCN(CC)S(=O)(=O)c1ccc2c3c(cccc13)C(=O)N2	6%
Cn1c(C(C#N)C(=O)Cc2cccc3ccccc23)nc2ccccc21 (stereo unspecified)	u
CCOC(=O)C1CCCN(C(=O)CC(C)c2ccccc2)C1 (stereo unspecified)	48%
NC(=O)C1CCN(CC(=O)c2c[nH]c3ccc(F)cc23)CC1	-10%
COC(=O)c1ccc2c(=O)n(CCC3=CCCCC3)c(SCC(=O)N3CCCC3)nc2c1	84%
N=C(N)SCc1cc(Cl)cc(Cl)c1O	0%[5.75 µM]
O=C(Cc1ccc(Cl)cc1)Nc1ccc(N2CCN(C(=O)c3ccco3)CC2)c(Cl)c1	6%
c1ccc(-c2nnc(SCc3nc4ccccc4[nH]3)n2Cc2ccco2)nc1	14%
CCOC(=O)c1sc(NC(=O)CSc2ccccn2)c(C#N)c1C	-14%

Next section.
SMILES	AmpC inh no det
O=C(COC(=O)c1cnccn1)c1ccc2c(c1)CCCC2	32%
CCOC(=O)C1CCN(C(=O)CNS(=O)(=O)c2cccs2)CC1	7%
Clc1cccc(N2CCN(CCNc3nc4ccccc4n4cnnc34)CC2)c1	113%
Cc1ccc(NCc2nnc3n2CCCCC3)cc1	0%
C=CCNS(=O)(=O)c1ncnc2nc[nH]c12	-7%[5.75 µM]
O=C(COc1ccc(S(=O)(=O)NCc2ccccc2)cc1)NCC1CCCO1 (stereo unspecified)	20%
CCN(CC)CCCN1C(=O)C(O)=C(C(C)=O)C1c1ccc(OC)cc1OC (stereo unspecified)	4µM*[single pt active]
CCn1c(SCC(=O)Nc2cccc(OC)c2)nnc1-c1ccc(Cl)cc1	24%
CC(=O)NC(NC(C)=O)c1ccc(Br)cc1	-13%
CCOC(=O)c1sc(NC(=O)CN2CCCC2)c(C(=O)OCC)c1C	53%
O=C(Cc1ccccc1F)Nc1nc(-c2cccs2)cs1	-22%
CC1C=CC(C)C(C(=O)O)C1C(=O)O (stereo unspecified)	6%
COc1cc(C(=O)CSc2nnc(-c3ccc(O)cc3)n2CC2CCCO2)ccc1NC(C)=O (stereo unspecified)	26%
COc1ccc(CN(Cc2ccccn2)C(=O)CN2C(=O)C(C)Oc3ccccc32)cc1 (stereo unspecified)	85%
N=c1c2c(-c3ccccc3)c(-c3ccccc3)oc2ncn1CCN1CCOCC1	148%
Cc1ncoc1C(=O)NCc1ccccc1Cl	3%
COC(=O)[C@H](CCSC)NC(=O)N1CCN(c2cccc(C(F)(F)F)c2)CC1	78%
O=c1[nH]c2c(cc1CNCCN1CCOCC1)c(-c1cccc(F)c1)nn2-c1ccccc1	163%
CN(C)CCCNc1cc(O)c2c(c1O)C(=O)c1ccccc1C2=O	7%[5.75 µM]
COc1ccc(C(=O)COC(=O)CN2CC(=O)Oc3ccccc32)cc1Br	-12%
Cc1nonc1NC(=O)CSc1nc2cc(Cl)ccc2c2c1CCCC2	13µM*
COc1ccc(NC(=O)N2CCCC3(CCN(C(=O)c4cnccn4)CC3)C2)cc1	-8%
COc1ccc(CCNC(=O)CCN2C(=O)COc3ccccc32)cc1OC	11%
O=C(c1ccc(CS(=O)(=O)c2ccc(Br)cc2)o1)N1CCC2(CC1)OCCO2	10%
CCN(CC)S(=O)(=O)c1ccc2[nH]cc(C(=O)NCCc3ccc(OC)c(OC)c3)c(=O)c2c1	48%

Carrying on.
SMILES	AmpC inh no det
CN(C)c1ccc(P(=O)(OC2CCCCC2)C(O)c2cccnc2)cc1 (stereo unspecified)	28%
COc1ccc(C2Sc3nncn3N2Cc2ccc(C#N)cc2)cc1 (stereo unspecified)	12%
O=C(NC1CCN(C(=O)NC2CCCCC2)CC1)c1ccco1	-12%
CCOC(=O)c1c(C)n(C)c2ccc(OCC(O)Cn3nc(C)c(Br)c3C)cc12 (stereo unspecified)	110%
CCc1ccccc1NC(=O)c1cnccn1	12%
COc1ccccc1CNC(=O)C1CCN(c2nc3ccccc3o2)CC1	63%
CC1=CC=CC2=NC(=O)CC(C)(C(=O)N(CC(=O)NC(C)C)C3CCCC3)N12 (stereo unspecified)	9%
CCCn1c(SCC(=O)Nc2nnc(-c3ccccc3)s2)nnc1-c1ccccn1	122%
Cc1onc(-c2ccccc2)c1C(=O)Nc1ccnn1C1CCCCC1	22%
CCOc1cc(C(=O)OCC(=O)c2c(C)[nH]c3ccccc23)ccc1OCC(=O)N1CCOCC1	155%
O=C(O)C1CCCCC1C(=O)NCCc1ccccc1 (stereo unspecified)	6%
CC(C)NC(=O)N1CC[C@@]2(CCCN(C(=O)c3cc(C(F)(F)F)cc(C(F)(F)F)c3)C2)C1	74%
Cc1nnc2ccc(Oc3ccc(-c4ccccc4)cc3)nn12	128%
N#Cc1cccc(NC(=O)COc2ccc(-n3ccnc3)cc2)c1	-2%
CC(=O)N1CCN(C(=O)CNc2cc(C(F)(F)F)ccc2OCC(F)(F)F)CC1	76%
Cn1cnc(CCN)c1	7%
CN(C)c1ncc2nc(-c3ccc(F)cc3)c(=O)n(CCc3ccccc3)c2n1	-8%
O=C(O)CCN1C(=O)c2ccncc2C1=O	-8%
CC(C)CNC(=O)c1cccc(Cn2cc(Cl)cn2)c1	14%
CN1c2ccccc2C(C)(C)C12C=Cc1cc(O)ccc1O2 (stereo unspecified)	-3%
Nc1nccc(Nc2ccc(S(N)(=O)=O)cc2)n1	-2%[5.75 µM]
COc1ccc(NC(=O)C2C(=O)N(CCO)C3(C)CC2c2ccccc2O3)cc1 (stereo unspecified)	10%
CC(=O)NC(CCS(C)(=O)=O)C(=O)Nc1ccc(Oc2ccccc2)cc1 (stereo unspecified)	64%
COc1ccc(OCCN(C)Cc2ccccc2)cc1	-1%
O=C(O)C1CSC(c2ccncc2)N1 (stereo unspecified)	-1%

Following part.
SMILES	AmpC inh no det
Cc1nn(C)c(C)c1S(=O)(=O)N(CC(=O)NCc1ccco1)c1ccc(C(C)C)cc1	120%
CCC/C=C(\CCC)C(NC(=O)OCC(C)C)c1ccccc1 (stereo unspecified)	-5%
N=c1n(CCN2CCCCC2)c2ccccc2n1CC(O)c1cccc(Br)c1 (stereo unspecified)	0%
c1cncc(C2CCCCN2Cc2ccc3c(c2)OCO3)c1 (stereo unspecified)	-6%
CN(C)CN1C(=O)S/C(=C2/C(=O)N(CN(C)C)c3ccccc32)C1=O	1%[5.75 µM]
CCOc1ccc2nc(SCC(=O)NCc3ccco3)sc2c1	-7%
CCOc1cccc(C2C(C#N)=C(N)Oc3cc(C)n(Cc4ccccn4)c(=O)c32)c1OCC (stereo unspecified)	30%
Cc1cc(C(=O)OCC(=O)NC(=O)NC(C)(C)C)c(C)o1	-10%
CCC(C)(C)n1nnnc1C(CC(C)C)N1CCC(C(N)=O)CC1 (stereo unspecified)	28%
COc1ccc(OCC(=O)OCCN2C(=O)c3ccccc3C2=O)cc1	7%
CCCN1CCc2cccc3c2[C@@H]1Cc1ccc(O)c(O)c1-3	-7%
CCN1CCN(c2nc3sc4c(c3c3ncnn23)CC(C)CC4)CC1 (stereo unspecified)	98%
c1ccc(-c2nc3ccccc3c3nncn23)cc1	3%
COCC(=O)OCn1nnc2ccccc2c1=O	-12%
C[C@](N)(Cc1ccc(O)c(O)c1)C(=O)O	-1%
CCc1ccccc1N1CC23C=CC(O2)C(C(=O)O)C3C1=O (stereo unspecified)	0%
O=C(NCC1CCCO1)C1CCN(S(=O)(=O)c2cccnc2)CC1 (stereo unspecified)	3%
Cc1ccc(NC(=O)Cn2nnc(C(=O)NCc3ccccc3)c2N)cc1C	u
COCCNc1nnc(SCC(=O)c2ccc3c(c2)OCO3)s1	4%
CSCCC(NS(=O)(=O)/C=C/c1ccccc1)C(=O)N1CCC(C)CC1 (stereo unspecified)	50%
CC1CC(=O)C2=C(C1)OC(N)=C(C#N)C2c1coc2ccccc2c1=O (stereo unspecified)	3%
CCOC(=O)c1[nH]cnc1C(=O)Nc1cccc(N)n1	-13%
O=C(CSc1nc2c(c(=O)n1-c1ccccc1)SCC2)N1CCN(c2ccccc2)CC1	-4%
CC(=O)NC1CC(C)(C)N(OC(C)=O)C(C)(C)C1	-2%
CCOC(=O)N1CCN(C(=O)c2n[nH]c(=O)c3ccccc23)CC1	-2%

A draw from above in order of heavy-atom count, smallest number first:
SMILES	AmpC inh no det
CCc1ccccc1NC(=O)c1cnccn1	12%
Cc1ccc(NCc2nnc3n2CCCCC3)cc1	0%
O=C(Cc1ccccc1F)Nc1nc(-c2cccs2)cs1	-22%
CCCN1CCc2cccc3c2[C@@H]1Cc1ccc(O)c(O)c1-3	-7%
CCn1c(SCC(=O)Nc2cccc(OC)c2)nnc1-c1ccc(Cl)cc1	24%
CC(=O)N1CCN(C(=O)CNc2cc(C(F)(F)F)ccc2OCC(F)(F)F)CC1	76%
COc1ccc(NC(=O)N2CCCC3(CCN(C(=O)c4cnccn4)CC3)C2)cc1	-8%

Retrieved by compound from the list above, six records:
SMILES	AmpC inh no det
CSCCC(NS(=O)(=O)/C=C/c1ccccc1)C(=O)N1CCC(C)CC1 (stereo unspecified)	50%
COCCNc1nnc(SCC(=O)c2ccc3c(c2)OCO3)s1	4%
CC1CC(=O)C2=C(C1)OC(N)=C(C#N)C2c1coc2ccccc2c1=O (stereo unspecified)	3%
CCC/C=C(\CCC)C(NC(=O)OCC(C)C)c1ccccc1 (stereo unspecified)	-5%
C[C@](N)(Cc1ccc(O)c(O)c1)C(=O)O	-1%
Cc1ccc(NC(=O)Cn2nnc(C(=O)NCc3ccccc3)c2N)cc1C	u

(list continues)
SMILES	AmpC inh no det
N#Cc1cn(CC(=O)NCc2cccnc2)c2ccccc12	-3%
Cn1nc(C(C)(C)C)cc1C(=O)NCc1ccc(N2CCCC2=O)cc1	37%
CC1Cc2ccccc2N1C(=O)C1CCCN1S(=O)(=O)c1ccc(Cl)cc1 (stereo unspecified)	41%
COC(=O)CNC(=O)c1ccc(=O)oc1	-3%
COCCCNC(=O)C1CCN(S(=O)(=O)N(CC(C)C)CC(C)C)CC1	80%
COc1ccc(NC(=O)CSc2nnc(-c3ccccn3)n2N)c(OC)c1	9%
O=C(CN1C(=O)c2ccccc2S1(=O)=O)N1CCN(c2ccccc2)CC1	24%
CN1C(=O)C(Cc2ccc3c(c2)OCO3)C(=O)N(C)C1=O	1%
CCOc1ccc(-c2nnc(SCC(=O)N3CCN(c4ccccc4)CC3)o2)cc1	-3%
CCC(=O)N1CCc2cc(S(=O)(=O)NC(C(=O)Nc3cccc(C)n3)C(C)C)ccc21 (stereo unspecified)	5%
Cc1cc(C(=O)Cn2nnc3ccccc3c2=O)c(C)n1-c1c(C)n(C)n(-c2ccccc2)c1=O	82%
O=C(c1ccccc1/S(=N/S(=O)(=O)c1ccccc1)N1CCOCC1)N1CCOCC1 (stereo unspecified)	3%
N#Cc1cc(-c2ccccc2)nn1-c1ccccc1	-18%
CC1CCN(S(=O)(=O)N2CCC(C(=O)N3CCC(N(C)CC4CCCO4)CC3)CC2)CC1 (stereo unspecified)	4µM*[single pt active]
N#Cc1c(-c2ccco2)nc(SCC(=O)Nc2cccc(Cl)c2)[nH]c1=O	u
O=C(O)Cn1ccnc1	-10%
COC(=O)COc1ccc(S(=O)(=O)Nc2cc(OC)ccc2OC)cc1	8%
CC(=O)C1=C(O)C=C2Oc3c(C(C)=O)c(O)c(C)c(O)c3[C@]2(C)C1=O	-1%
CCC(=Nc1ccc(OC)cc1OC)c1c(O)n(C2CCCCC2)c(=O)[nH]c1=O	0%
CCn1c(SCC(N)=O)nnc1-c1ccc(OC)c(OC)c1	4%
CCOC(=O)CN1C(=O)C(O)=C(C(C)=O)C1c1ccc(F)cc1 (stereo unspecified)	12%
CCOC(=O)Cn1c(CN2CC(C)OC(C)C2)nc2c1c(=O)n(C)c(=O)n2C (stereo unspecified)	122%
CCOC(=O)c1sc(NC(=O)CSc2nnc(C(C)C)n2CC)nc1C	67%
O=S(=O)(c1cccc2c(Cl)cccc12)N1CCCNCC1	49%&9%
CCOC(=O)Cn1c(C)cc(=O)c2cccc(C)c21	52%
CCOc1cc(S(=O)(=O)n2cc(-c3ccc(F)cc3)c(N)n2)cc(OCC)c1OCC	38%
CCCNC(=O)C1CC(=O)N(c2ccc(OCC(=O)Nc3cccc(C)c3C)cc2)C1 (stereo unspecified)	26%

Two neighbouring records from above:
SMILES	AmpC inh no det
COc1cccc(/C(O)=C2/C(=O)C(=O)N(c3cc(C)on3)C2c2cccs2)c1 (stereo unspecified)	-14%
Cc1ccc(C(=O)OCC(=O)NCc2ccc3c(c2)OCO3)s1	-3%
